gsp antagonist: qHTS for Antagonists of gsp, the Etiologic Mutation Responsible for Fibrous Dysplasia/McCune-Albright Syndrome: qHTS | gsp-mutant cells, cAMP HTRF, 30 min; control for the full effect not named in the record | Potency, µM (series often up to 76.9 µM), for inactives: top-dose activity change, negative = inhibition, usual class: inhibitors | 340,000 tested, 0.4% active | AID 624288, 2012; active = falling curve of any shape with a large fitted effect; inconclusive = falling curve, mostly with a smaller effect; inactive = flat or rising curve; cell line not stated here;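 further: intracellular cAMP measured with PDE inhibitor Ro 20-1724 present during compound exposure; potency means the concentration at half of the fitted maximal effect; on the % scale 0 is the no-effect control and ±100 the full control effect; nearly all actives have a fitted effect of over 65% in size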
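Measurement of cellular cAMP by homogeneous time-resolved fluorescence following a 30 min compound exposure at 37C. The PDE inhibitor […] was present throughout; the assay buffer was DPBS with 0.05% BSA and 0.005% Tween 20.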
CtBP-E1A inh: qHTS Assay for Inhibitors of the CtBP/E1A Interaction | AlphaScreen GST-E1A/His-CtBP binding, 1536-well; active compounds read low; control for the full effect not named in the record | activity change, % (concentration not given with the values) | 340,000 tested, 0.49% active; in the data active means activity change below about -65%; inconclusive means about -30% to -65%; inactive means above about -30%; further: on the % scale 0 is the no-effect control and ±100 the full control effect
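Homogeneous bead-based format: GST-tagged E1A captured on glutathione donor beads, His-tagged CtBP on nickel acceptor beads; compounds precede bead addition by 2 h at 37 °C.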
ClpP mod: qHTS Assay for Activators of ClpP. ATP-dependent Clp protease proteolytic subunit (Bacillus subtilis (strain 168)), P80244. purified B. subtilis ClpP, FRET peptide cleavage, 20 min. Potency, µM (titrated, usually from 57.5 µM), inactives show at the top dose activity change, negative = active. 340,000 tested, 1.9% active. AID 651965, 2013; active = well fitted falling curve with a large enough effect; inconclusive = small, poorly fitted or top-dose-only effect; inactive = no such curve, though single readings can be large or run the other way; further: potency means the concentration at half of the fitted maximal effect; the source files actives as falling curves though it sought activators and does not explain the sign; nearly all actives have a fitted effect of over 65% in size; many hits overshoot -100%
Target sequence (P80244 whole entry, looked up): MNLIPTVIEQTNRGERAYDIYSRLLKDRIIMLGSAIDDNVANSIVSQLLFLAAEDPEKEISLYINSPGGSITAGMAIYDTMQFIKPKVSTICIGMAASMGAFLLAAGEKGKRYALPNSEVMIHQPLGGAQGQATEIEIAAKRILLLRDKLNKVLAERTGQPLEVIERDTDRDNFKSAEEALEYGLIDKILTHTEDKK
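FRET quenching reversal measured ClpP activation: 10 microg/mL B. subtilis ClpP at pH 8 with the FRET-FV decapeptide, read at 430 nm after 320 nm excitation. The 20-min minus 0-min signal was scaled between DMSO/no-enzyme wells and ADEP (5.8 microM final).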
TRPV1 potentiator: HTS Assay for Compounds that Act as Potentiators of the Vanilloid Receptor 1; Transient receptor potential cation channel subfamily V member 1 (Homo sapiens), Q8NER1; TRPV1-expressing cells, Fluo-8 calcium influx, capsaicin EC20 potentiation; host cell line not named in the record; control for the full effect not named in the record; potentiation, % at 8.33 µM; 320,000 tested, 0.02% active; active means potentiation above 80%; inconclusive means 30% to 80%; inactive means below 30%; further: 0% is about no effect
Target sequence (Q8NER1 whole entry, looked up): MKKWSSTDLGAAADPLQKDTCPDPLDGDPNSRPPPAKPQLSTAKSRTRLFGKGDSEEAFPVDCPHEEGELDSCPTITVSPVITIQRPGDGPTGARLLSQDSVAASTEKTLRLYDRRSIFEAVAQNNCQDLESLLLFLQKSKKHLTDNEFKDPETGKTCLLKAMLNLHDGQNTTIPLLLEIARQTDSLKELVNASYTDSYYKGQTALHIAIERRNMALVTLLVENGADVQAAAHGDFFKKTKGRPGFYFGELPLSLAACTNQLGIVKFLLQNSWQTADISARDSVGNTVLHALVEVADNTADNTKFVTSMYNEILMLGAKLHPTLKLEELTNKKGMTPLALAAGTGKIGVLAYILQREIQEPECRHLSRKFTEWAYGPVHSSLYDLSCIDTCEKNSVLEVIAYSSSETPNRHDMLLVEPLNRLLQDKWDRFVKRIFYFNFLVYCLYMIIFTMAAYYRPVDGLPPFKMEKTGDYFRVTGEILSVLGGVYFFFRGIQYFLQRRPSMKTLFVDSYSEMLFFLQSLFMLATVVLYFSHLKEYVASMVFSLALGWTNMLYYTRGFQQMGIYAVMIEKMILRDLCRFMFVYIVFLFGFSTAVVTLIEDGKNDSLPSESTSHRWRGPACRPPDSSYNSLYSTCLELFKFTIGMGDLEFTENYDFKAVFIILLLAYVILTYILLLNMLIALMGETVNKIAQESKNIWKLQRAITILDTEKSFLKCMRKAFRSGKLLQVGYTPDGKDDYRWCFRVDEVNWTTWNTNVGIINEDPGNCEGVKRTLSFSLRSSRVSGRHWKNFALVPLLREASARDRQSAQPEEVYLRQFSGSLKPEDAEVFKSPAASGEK
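Fluo-8 calcium influx in TRPV1-expressing cells, kinetic read (ex 480/em 520 nm). Compound added and read 3 min for agonist activity, followed by capsaicin at EC20 final and 2 min further read for enhancement.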
Menin MLL FP FL: qHTS Assay for Inhibitors Targeting the Menin-MLL Interaction in MLL Related Leukemias: Competition With Fluorescein Labeled MLL-derived Peptide. Fluorescence polarization, fluorescein-MLL peptide displacement from menin. FP activity change, % at 61.4 µM. 290,000 tested, under 10 active. AID 1766, 2009; inconclusive = falling polarisation curve, or a change in total fluorescence; inactive = total fluorescence flat and polarisation flat or rising; no compound was filed as active; the % refers to the polarisation; negative = inhibition;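 further: % of control where 0% means no effect; inhibitors lower the polarisation; unlabelled MLL peptide was the positive control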
Sfp inh: qHTS Assay for Inhibitors of Bacillus subtilis Sfp phosphopantetheinyl transferase (PPTase) | 4'-phosphopantetheinyl transferase ffp (Bacillus subtilis), Q9F4F7 | Biochemical Sfp PPTase activity, qHTS | Potency, µM, inactives show max response, negative = inhibition, usual class: inhibitors | 310,000 tested, 3.5% active; active means well fitted inhibition curve with a large enough effect; inconclusive means small, poorly fitted or top-dose-only effect, or another doubt; inactive means no such curve, though single readings can be large or run the other way;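 further: the enzyme is Sfp with the accession as filed and its product quenches rhodamine fluorescence; potency means the concentration at half of the fitted maximal effect; 0% = enzyme reaction without inhibitor and -100% = no enzyme wells; top concentration of the series not given in the record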
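Fluorescence-quenching assay: 15 nM Sfp-PPTase preincubated 15 min at room temperature with compound, then 5 uM rhodamine-CoA and 12.5 uM BHQ-2-labelled YbbR peptide added. Fluorescence (ex 525/em 598 nm) read at start and after 30 min; difference gives rate.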
gsp agonist: qHTS for Agonist of gsp, the Etiologic Mutation Responsible for Fibrous Dysplasia/McCune-Albright Syndrome: qHTS; AID 624287, 2012; Potency, µM (series often up to 76.9 µM), without a hit: at the highest dose activation (cAMP increase), most hits filed as activators; gsp mutant cells, cAMP HTRF, 30 min; control for the full effect not named in the record; 340,000 tested, 0.13% active; active = well fitted activation curve with a large enough effect; inconclusive = small, poorly fitted or top-dose-only effect, or another doubt; inactive = no such curve, though single readings can be large or run the other way; cell line not stated here;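 further: phosphodiesterase inhibitor Ro 20-1724 added with compounds to block cAMP breakdown; potency means the concentration at half of the fitted maximal effect; nearly all actives have a fitted effect of over 60% in size; about a fifth of the inactives were tested at one dose only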
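Cells in DMEM/10% FBS with G418 were pretreated with compounds in DMSO plus […] (300 uM stock) for 30 min at 37C. cAMP was measured by HTRF (cAMP-d2 plus anti-cAMP antibody-K) after 30 min at room temperature.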
The depositor's hits bear a star; ? = inconclusive; / = not tested or not shown; [ ] = another dose, or the depositor's remark.

SMILES | gsp antagonist | CtBP-E1A inh | ClpP mod | TRPV1 potentiator | Menin MLL FP FL | Sfp inh | gsp agonist
O=C(CCC1CCCCC1)NCCS(=O)(=O)N1CCN(c2ccccc2F)CC1 | 1% | -24 | -2.9% | -16 | / | / | ?
CC1(C)Cc2c(sc3nc(SCC(=O)O)[nH]c(=O)c23)CO1 | -1% | 6 | -8.9% | 11 | -1.6 | 10% | 1%
Cc1ccc(Nc2c(-c3ccccc3)nc3cnccn23)cc1 | -5% | 4 | / | 1 | 0.5 | 11% | 13%
Cn1c(=O)c2c(nc(NCCCO)n2Cc2cccc(Br)c2)n(C)c1=O | 2% | 2 | 0.3% | 9 | 0.0 | 12% | ?
O=C(COC(=O)CN1CCSC1=O)Nc1ccc(F)cc1Cl | -4% | 10 | 1.6% | / | / | / | -58%[inhibitor]
Cc1cccc(-c2cnn(-c3cccc([N+](=O)[O-])c3)c2N)c1 | ? | -18 | / | -8 | -1.4 | 16% | -9%[15.4 µM]
N#Cc1ccc(CSc2nnc(COc3ccccc3)n2-c2ccccc2)cc1 | -15% | -2 | 1.4% | 3 | 3.8 | -2% | -2%
Cc1ccccc1OCC(=O)Nc1ccc(Cc2ccncc2)cc1 | ? | -23 | -1.6% | -13 | 8.4 | -26% | -38%[inhibitor]
COc1ccc(NC(=O)CCCSc2ccccc2)cc1 | 3% | 9 | 0.5% | 18 | 1.9 | -5% | -2%
CC1=NOC(=O)/C1=C/c1ccc2c(c1)OCO2 | -4% | / | 2.3% | 9 | -1.0 | 1% | -19%
COc1ccc(CCNC(=O)COc2ncnc3cc([N+](=O)[O-])ccc23)cc1 | -4% | -17 | -1.8% | 4 | 2.3 | 14% | -26%
Nc1ccc(C(=O)N/N=C/c2ccccc2)cc1 | -12% | 6 | 0.0% | -30 | 0.4 | 3% | -31%[inhibitor]
Cc1cc(NC(=O)COc2coc(CN3CCN(c4ccccc4F)CC3)cc2=O)no1 | -12% | 1 | / | 0 | / | / | 14%[15.4 µM]
O=C(NCc1cc(F)cc(C(F)(F)F)c1)C1CCC(=O)N(C2CCCC2)C1 (stereo not drawn) | 11% | 4 | -0.4% | -7 | / | 7% | ?
COc1ccc(CCNC(=O)C(C)Sc2ccccc2)cc1OC (stereo not drawn) | 4% | -3 | -8.5% | / | -1.5 | 19% | 3%
CCOC(=O)c1cc(C)n(CCc2ccccc2)c1C | -12% | -4 | 2.2% | -5 | -0.4 | 1% | -3%
CCCN1CCN(CCCNC(=S)Nc2ccc(F)cc2)CC1 | 6% | 5 | -0.4% | 4 | -1.1 | -1% | -32%
Cc1cc(C)cc(NC(=S)N(Cc2ccc(Br)cc2)Cc2ccc(C(=O)O)cc2)c1 | -13% | 0 | / | 0 | 5.1 | -8% | -9%
CC(C)CC(=O)C1=C(O)C(=O)N(Cc2ccccc2)C1c1ccccc1 (stereo not drawn) | 7% | / | 0.9% | -9 | -4.8 | 14% | 5%
COc1ccc(Nc2nc(Cl)nc(NCc3ccco3)n2)c(OC)c1 | -2% | 1 | 0.1% | 5 | -0.4 | 9% | ?
Cc1cc2oc(C(=O)NCc3ccc4c(c3)OCO4)c(C)c2cc1C | 7% | -2 | -14% | / | 9.0 | ? | 6%
COc1ccc(C)cc1NC(=O)C(=O)NCc1ccncc1 | -6% | 6 | 0.1% | -9 | -1.8 | 0% | -39%[inhibitor]
CC1(C)C(=O)Nc2ccccc2N1C(=O)COc1ccccc1C#N | 2% | -1 | / | / | / | / | 12%
Cc1ccccc1CC1S/C(=N/N=C/c2ccco2)NC1=O (stereo not drawn) | / | / | / | ? | 12 | 2% | /

Full records, quoted from the list:
Entry for CCCN1CCN(CCCNC(=S)Nc2ccc(F)cc2)CC1 → gsp antagonist = 6%; CtBP-E1A inh = 5; ClpP mod = -0.4%; TRPV1 potentiator = 4; Menin MLL FP FL = -1.1; Sfp inh = -1%; gsp agonist = -32%
Entry for CC(C)CC(=O)C1=C(O)C(=O)N(Cc2ccccc2)C1c1ccccc1 (stereo not drawn) → gsp antagonist = 7%; CtBP-E1A inh = /; ClpP mod = 0.9%; TRPV1 potentiator = -9; Menin MLL FP FL = -4.8; Sfp inh = 14%; gsp agonist = 5%

(listing goes on)
SMILES | gsp antagonist | CtBP-E1A inh | ClpP mod | TRPV1 potentiator | Menin MLL FP FL | Sfp inh | gsp agonist
CC(=O)Nc1ccc(C(=O)NNC(=O)c2ccc(Cl)cc2)cc1 | 14% | -1 | -2.4% | 11 | -9.0 | 12% | -1%
CS(=O)(=O)N1CCN(C(=O)CCC2CCCC2)CC1 | 9% | 3 | -4.1% | 29 | 1.2 | 9% | -51%[inhibitor]
O=c1[nH]oc2cc(Cl)ccc12 | -2% | / | 0.7% | 25 | 1.4 | 5% | -2%
COc1cccc(-c2csc(NC(=O)Nc3ccccc3)n2)c1 | ? | 2 | -1.6% | 1 | -0.4 | -28% | ?
Cc1ccc(C(=O)OCC(=O)Nc2cccc(S(=O)(=O)N3CCOCC3)c2)o1 | -2% | 4 | 1.8% | 2 | / | / | -32%[inhibitor]
O=C(NC1CCCCC1)N1CCN(C(c2ccccc2)c2ccccc2)CC1 | -31% | 2 | 0.2% | 0 | 0.6 | -9% | -72%[inhibitor]
O=C(COc1ccccc1)NCC(=O)Nc1ccncc1 | -2% | -3 | -2.5% | 8 | / | / | 11%[15.4 µM]
Cc1ccc(C(=O)NCC(=O)N(C)CC(=O)Nc2c(Cl)cccc2Cl)s1 | 6% | -9 | -10% | 6 | / | / | -1%
COc1ccc(S(=O)(=O)N2CCN(CC(=O)NCC3(N4CCOCC4)CCCCC3)CC2)cc1 | -19% | 2 | 0.8% | -4 | / | / | -1%
CCn1c(SCC(=O)NNC(=O)c2ccc(C)cc2)nnc1C1CC1 | 8% | 7 | / | 4 | 6.7 | -7% | 17%
COc1ccccc1-c1cc(C(=O)N/N=C/c2ccoc2)c2ccccc2n1 | 5% | -1 | 0.5% | -17 | -4.2 | 15% | -20%[15.4 µM]
Cc1ccccc1OCC(O)CN1CCCCC1 (stereo not drawn) | 9% | 13 | 1.7% | -12 | 0.7 | 11% | 13%
CCN(CC)CC(O)c1cccn1-c1ccc(CNC(=O)NC(C)C)cc1 (stereo not drawn) | 5% | -4 | 0.8% | -2 | 4.6 | -5% | 2%
Cc1ccc(CNC(=O)c2ccc(N3CCC4(CC3)CC(c3cccc(Br)c3)=NO4)c(N)c2)cc1 | 8% | -6 | -21% | 15 | / | / | -1%
CC(=O)c1cnc(Nc2nc(C)c3cc(C)c(C)cc3n2)nc1C | 8% | 0 | -0.4% | 8 | 1.3 | 2% | ?
COc1ccccc1N1CC(O)=C(c2nc3ccccc3c(=O)[nH]2)C1=N | -16% | 8 | 32µM* | 30 | 1.8 | -2% | 0%
COc1ccc(CC(=O)NCc2nnc(SCC(=O)Nc3nccs3)n2-c2ccccc2)cc1 | -1% | -2 | 0.6% | -16 | 2.3 | 10% | -20%
O=C(NNC(=O)c1ccccc1C(=O)O)c1ccc(O)cc1 | -3% | 1 | / | -15 | 2.1 | 6% | 7%
O=c1[nH]c(/C=C\c2ccc(O)cc2)nc(O)c1[N+](=O)[O-] | -5% | 2 | 1.5% | -8 | 1.5 | 18% | -8%
COc1cccc(C(=O)N[C@@H](CCSC)c2nc3ccccc3[nH]2)c1 | 8% | 1 | 1.0% | -13 | -0.7 | 20% | 18%
Cc1ccsc1/C=N/NC(=O)C(N)=O | 5% | / | 2.0% | 0 | -1.4 | 19% | 0%
CCc1cc(=O)[nH]c(SCC(=O)Nc2ccc3c(c2)OCCO3)n1 | -5% | 13 | -0.5% | 7 | / | / | -11%
S=c1[nH]nc(-c2ccncc2)n1/N=C/c1ccccc1Cl | -9% | / | 2.5% | 29 | 1.3 | -2% | 5%
CCOC(=O)c1nnn(-c2nonc2N)c1COc1ccc(F)cc1 | 0% | 10 | 0.0% | -16 | 3.0 | 3% | 1%
O=C(Nc1cccc(F)c1)c1ccc(S(=O)(=O)NCC2CCCO2)cc1 (stereo not drawn) | -10% | 22 | 1.4% | -7 | 0.4 | 7% | -1%
Cc1[nH]c(=O)c(C#N)c(C)c1CCC(=O)NCc1cccc(C(F)(F)F)c1 | 14% | 0 | / | ? | -1.2 | -7% | -32%[inhibitor]
O=C(CSc1nnc(C2COc3ccccc3O2)o1)N1CCCC1 (stereo not drawn) | 6% | -2 | / | -2 | -1.5 | ? | -21%[15.4 µM]
CC1=NN(C(=O)COc2ccc(C)c(C)c2)C(O)(c2ccc(Cl)cc2)C1 (stereo not drawn) | 0% | 1 | -2.2% | ? | / | 2% | 12%
COc1ccc(C(=O)N=C2SC3CS(=O)(=O)CC3N2c2ccccc2)cc1OC (stereo not drawn) | -5% | -2 | -12% | -15 | 0.6 | 10% | -17%
COC(=O)[C@@H](NC(=O)Nc1ccc(OC(F)(F)F)cc1)C(C)C | -3% | -3 | -0.3% | 16 | -1.5 | 14% | -7%
COc1ccc(OCC(O)CNS(=O)(=O)c2cccc(Cl)c2)cc1 (stereo not drawn) | -1% | 4 | / | 4 | 4.0 | 8% | 1%[15.4 µM]
COc1cc(NC(=O)NCc2ccco2)ccc1-c1ccc(NC(=O)NCc2ccco2)cc1OC | 5% | 0 | / | / | / | / | -10%
CC1CCCCC12NC(=O)N(CC(=O)N1CCN(S(=O)(=O)Cc3ccccc3)CC1)C2=O (stereo not drawn) | 8% | / | 1.6% | 5 | / | / | ?
O=c1c2c3c(sc2ncn1/N=C/c1cccnc1)CCCC3 | -32% | -2 | / | -8 | -9.4 | 20% | 18%[15.4 µM]
c1ccc(Sc2ccncc2)cc1 | / | 1 | 0.5% | / | / | / | -42%[inhibitor]
CN(C(=O)/C=C/c1ccccc1)C1CCCCC1 | -4% | -1 | / | / | / | / | -1%[15.4 µM]
